Assay outcomes deposited in PubChem BioAssay by National Center for Advancing Translational Sciences (NCATS).
Sfp PPTase inh = blocks B. subtilis Sfp PPTase activity | Q9F4F7 | Biochemical Sfp PPTase activity, qHTS | Potency, µM, without a hit: max response, negative = inhibition, actives largely listed as inhibitors | hit rate 3.5% among 310,000 | AID 1490; active = well fitted inhibition curve with a large enough effect; inconclusive = small, poorly fitted or top-dose-only effect, or another doubt; inactive = no such curve, though single readings can be large or run the other way;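 note: the enzyme is Sfp with the accession as filed and its product quenches rhodamine fluorescence; potency is the fitted concentration of half-maximal effect; 0% = enzyme reaction without inhibitor and -100% = no enzyme wells; top concentration of the series not given in the record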
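Step 1, compound plus 15 nM Sfp-PPTase, 15 min, room temperature. Step 2, add rhodamine-CoA (5 uM) and BHQ-2-YbbR (12.5 uM). Step 3, read 525/598 nm fluorescence at 0 and 30 min.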
gsp antagonist = antagonists of gsp mutant (McCune-Albright syndrome). gsp-mutant cells, cAMP HTRF, 30 min; control for the full effect not named in the record. Potency, µM (doses to about 76.9 µM), for the others: top-dose activity change, negative = inhibition, actives largely listed as inhibitors. hit rate 0.4% among 340,000. AID 624288; active = falling curve of any shape with a large fitted effect; inconclusive = falling curve, mostly with a smaller effect; inactive = flat or rising curve; cell line not stated here;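 note: intracellular cAMP measured with PDE inhibitor Ro 20-1724 present during compound exposure; potency is the fitted concentration of half-maximal effect; % is set by controls: 0 for no effect and ±100 for the full control effect; nearly all actives have a fitted effect of over 65% in size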
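Measurement of cellular cAMP by homogeneous time-resolved fluorescence following a 30 min compound exposure at 37C. The PDE inhibitor […] was present throughout; the assay buffer was DPBS with 0.05% BSA and 0.005% Tween 20.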
D2 agonist = activates the human D2 dopamine receptor; P14416; DiscoveRx PathHunter D2 beta-arrestin, luminescence, 90 min; 100% = 57 uM dopamine signal; activation, % (test concentration not listed); hit rate 0.084% among 360,000; AID 624465; in the data active = activation above about 40%; inconclusive = about 15% to 40%; inactive = below about 15%; note: compound concentration not given in the record; the text of the record calls up to 30% inactive
Target sequence (P14416 whole entry, looked up): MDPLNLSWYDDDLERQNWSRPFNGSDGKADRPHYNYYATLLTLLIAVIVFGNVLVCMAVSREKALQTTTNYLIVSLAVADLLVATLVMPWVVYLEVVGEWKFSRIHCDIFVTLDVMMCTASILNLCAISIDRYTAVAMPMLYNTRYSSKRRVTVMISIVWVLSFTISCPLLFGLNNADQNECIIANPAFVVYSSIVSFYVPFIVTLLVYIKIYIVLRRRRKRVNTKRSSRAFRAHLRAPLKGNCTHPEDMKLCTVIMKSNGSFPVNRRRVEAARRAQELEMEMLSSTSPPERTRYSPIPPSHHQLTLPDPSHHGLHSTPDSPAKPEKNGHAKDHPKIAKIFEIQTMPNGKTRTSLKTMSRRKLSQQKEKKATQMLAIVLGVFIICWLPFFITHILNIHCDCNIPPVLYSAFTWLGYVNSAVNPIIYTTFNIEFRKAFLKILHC
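DiscoveRx PathHunter D2 beta-arrestin cells (2,100/well) attached overnight, then compound-stimulated 90 min at 37 C in HBSS/10 mM HEPES/0.1% Tween-20 buffer; beta-galactosidase complementation read by luminescence after 1 h at ambient temperature. Dopamine 57 uM final (EC100) as control.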
Menin-MLL FL inh = menin-MLL binding inhibition, fluorescein peptide; FP activity change, % at 61.4 µM; Fluorescence polarization, fluorescein-MLL peptide displacement from menin; 290,000 tested, under 10 active; inconclusive = falling polarisation curve, or a change in total fluorescence; inactive = total fluorescence flat and polarisation flat or rising; no compound was filed as active; the % refers to the polarisation; negative = inhibition;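 note: % of control where 0% means no effect; inhibitors lower the polarisation; unlabelled MLL peptide was the positive control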
ClpP mod = qHTS Assay for Activators of ClpP; ATP-dependent Clp protease proteolytic subunit (Bacillus subtilis (strain 168)), P80244; purified B. subtilis ClpP, FRET peptide cleavage, 20 min; Potency, µM (doses to about 57.5 µM), for inactives: top-dose activity change, negative = active; hit rate 1.9% among 340,000; AID 651965, 2013; active = well fitted falling curve with a large enough effect; inconclusive = small, poorly fitted or top-dose-only effect; inactive = no such curve, though single readings can be large or run the other way; note: potency is the fitted concentration of half-maximal effect; the source files actives as falling curves though it sought activators and does not explain the sign; nearly all actives have a fitted effect of over 65% in size; many hits overshoot -100%
Target sequence (P80244 whole entry, looked up): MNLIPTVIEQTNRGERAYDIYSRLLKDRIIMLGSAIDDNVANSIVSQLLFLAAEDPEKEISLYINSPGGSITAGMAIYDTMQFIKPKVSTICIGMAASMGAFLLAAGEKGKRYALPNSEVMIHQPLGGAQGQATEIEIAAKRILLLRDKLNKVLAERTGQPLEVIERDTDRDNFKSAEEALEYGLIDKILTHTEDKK
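FRET quenching reversal measured ClpP activation: 10 microg/mL B. subtilis ClpP at pH 8 with the FRET-FV decapeptide, read at 430 nm after 320 nm excitation. The 20-min minus 0-min signal was scaled between DMSO/no-enzyme wells and ADEP (5.8 microM final).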
PINK1 modulator = modulators of PINK1 expression; Potency, µM (doses to about 76.6 µM), for inactives: at the highest dose activation (PINK1 increase), hits mostly activators; hit rate 0.2% among 410,000; PINK1 immunofluorescence, high-content cytometry, 24 h; AID 624263; active = well fitted activation curve with a large enough effect; inconclusive = small, poorly fitted or top-dose-only effect; inactive = flat fitted curve, though single readings scatter; cell line not stated here;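 note: potency is the fitted concentration of half-maximal effect; % of control where 0% means no effect; nearly all actives have a fitted effect of over 65% in size; a mitochondrial uncoupler was the plate control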
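Stable cell line treated 24 h with compounds at 5 concentrations (CCCP controls), then fixed and immunostained for PINK1 plus nuclear and cell stains; PINK1 immunofluorescence quantified by laser-scanning microplate cytometry.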
gsp agonist = activates gsp, the McCune-Albright syndrome mutation; gsp mutant cells, cAMP HTRF, 30 min; control for the full effect not named in the record; Potency, µM (series often up to 76.9 µM), for inactives: top-dose activation (cAMP increase), most hits filed as activators; hit rate 0.13% among 340,000; AID 624287; active = well fitted activation curve with a large enough effect; inconclusive = small, poorly fitted or top-dose-only effect, or another doubt; inactive = no such curve, though single readings can be large or run the other way; cell line not stated here;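 note: phosphodiesterase inhibitor Ro 20-1724 added with compounds to block cAMP breakdown; potency is the fitted concentration of half-maximal effect; nearly all actives have a fitted effect of over 60% in size; about a fifth of the inactives were tested at one dose only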
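Cells stably selected in G418 were plated at 2000/well, grown 16-24 hr, then given compounds in DMSO with the PDE inhibitor […] (300 uM solution added) for 30 min at 37C; cAMP was read by HTRF.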
* hit, by the source's call; ? = inconclusive; / = not tested or not shown; [ ] = another dose, or the depositor's remark. Rows are unselected. About 5.1% of those tested had a hit in this group.

SMILES | Sfp PPTase inh | gsp antagonist | D2 agonist | Menin-MLL FL inh | ClpP mod | PINK1 modulator | gsp agonist
O=C(Oc1cccnc1)c1cccc(Cl)c1 | -9% | 1% | 0.3 | 0.0 | -5.0% | / | 23%
Cc1ccccc1-c1nsc(SCC(=O)Nc2ccc3c(c2)OCO3)n1 | -5% | 2% | -2.5 | 1.3 | -3.6% | 11% | -15%
O=C(CCCCCN1C(=O)c2ccccc2C1=O)NCCc1nc2ccccc2[nH]1 | 10% | -11% | 0.4 | 0.4 | 0.6% | 3.5% | -36%
O=C(CCc1nc2ccccc2c(=O)[nH]1)Nc1ccccc1N1CCCCC1 | / | / | -4.8 | / | 0.6% | 1.5% | -56%[inhibitor]
Cc1ccc(C)c(NCc2ccccc2CO)c1 | 17% | 6% | -6.3 | -4.2 | / | 1.6% | -9%[15.4 µM]
COc1ccccc1NC(=O)CSc1nnc(-c2ccccc2)o1 | 16% | -14% | 4.0 | -0.3 | -0.4% | 1.0% | 26%
COc1cccc(NC(=O)COC(=O)c2ccco2)c1 | 9% | 4% | -2.1 | 2.0 | -0.4% | 0.9% | -20%
CCCC(=O)Nc1c(-c2ccccc2)c(=O)c(C)nn1-c1ccc(Cl)cc1 | 19% | 2% | -2.6 | 1.7 | / | -0.4% | 0%[15.4 µM]
CCN(CC)S(=O)(=O)c1cccc(NC(=O)c2cc(-c3cccs3)nn2-c2ccccc2)c1 | 11% | 3% | -2.8 | 2.8 | -28% | -2.9% | ?
Nc1c(N(Cc2ccco2)C(=O)c2cccc(F)c2)c(=O)[nH]c(=O)n1Cc1ccccc1 | / | 6% | -1.3 | / | 0.3% | -1.7% | -87%[inhibitor]
O=C(Nc1cccnc1)c1ccc(S(=O)(=O)c2ccc(Cl)cc2)cc1 | 11% | -11% | -0.2 | 6.5 | 0.0% | 0.4% | 7%[15.4 µM]
COc1ccc(N2CCN(C(=O)C3CCN(S(=O)(=O)c4c(C)noc4/C=C/N(C)C)CC3)CC2)cc1 | 9% | -29% | -0.4 | / | -0.4% | 0.3% | 23%
CCO[C@H]1OC(C(=O)NC2CC2)=C[C@@H](c2ccc(Br)cc2)[C@@H]1CCCO | 3% | 2% | 2.1 | 0.4 | 1.6% | 3.0% | /
NC(CSCSCC(N)C(=O)O)C(=O)O (centres undefined) | 11% | / | / | -0.2 | / | 0.6% | /
Cc1ccc(-n2c3c(c(=O)[nH]c2=S)C(C(F)(F)F)(C(F)(F)F)NC(=O)N3)cc1 | -25% | -9% | -3.2 | 0.6 | -2.2% | 2.8%[38.3 µM] | -66%[inhibitor]
CC(C)(C)c1nnc(NC(=O)Cc2ccccc2[N+](=O)[O-])s1 | -12% | -6% | 1.9 | 3.3 | ? | 0.1% | 20%
CC(C)(C)c1csc(NC(=O)CCS(=O)(=O)c2ccc(F)cc2)n1 | / | / | -0.2 | / | 0.6% | 2.8% | -29%
Cc1ccc(-n2nnnc2SCC(=O)Nc2cccnc2Cl)cc1 | 0% | -9% | 0.2 | 5.4 | 0.8% | 10% | 3%
COc1ccc(N/C=C(/C(C)=O)c2ccccc2)cc1 | -21% | 6% | 1.1 | -4.5 | ? | 0.1% | 0%
CC(=O)N1CCN(c2ncnc3ccccc23)CC1 | 2% | -6% | 1.7 | -0.3 | / | -0.6% | -48%[inhibitor]
COc1ccccc1CNC(=O)C(=O)NCCC1CCCCN1S(=O)(=O)c1ccccc1 (centres undefined) | / | ? | 1.8 | / | -1.6% | 4.2% | -2%[15.4 µM]
O=C(/C=C/c1cccc([N+](=O)[O-])c1)NC(=S)Nc1ccc(CN2CCOCC2)cc1 | 0% | -6% | -2.1 | 2.8 | 0.6% | 9.3% | -7%
Cc1ccc(CNC(=O)C(OC(=O)c2ccco2)C(C)C)cc1 (centres undefined) | 4% | 2% | -4.0 | 1.5 | -0.7% | -2.0%[38.3 µM] | -29%
Cc1c(C(=O)NCCN2CCOCC2)oc2ccc(S(=O)(=O)N3CCCCCC3)cc12 | -14% | 0% | -3.6 | 2.1 | -2.6% | -0.3% | ?
COc1ccc(C(=O)Nc2cnn(Cc3c(F)cccc3Cl)c2)cc1OC | 3% | -5% | 2.7 | 4.0 | -1.1% | -1.2% | ?

(next part)
SMILES | Sfp PPTase inh | gsp antagonist | D2 agonist | Menin-MLL FL inh | ClpP mod | PINK1 modulator | gsp agonist
Cc1ccc(S(=O)(=O)NC(=O)COc2cc(C)ccc2C(C)C)cc1 | 18% | -7% | -1.3 | -1.3 | 1.9% | 3.2% | -18%
CCCCNC(=O)CN(c1cccc(F)c1)S(C)(=O)=O | 16% | 21% | -2.7 | 2.2 | 0.2% | 3.2% | -18%
O=C(c1ccc(CS(=O)c2ccccc2Cl)o1)N1CCN(c2ccccn2)CC1 (centres undefined) | 6% | -19% | -3.8 | / | -5.5% | 11% | 2%
O=C(NCc1ccc2c(c1)OCO2)C1(S(=O)(=O)c2ccccc2)CC1 | 21% | 23% | -2.8 | 5.9 | -0.4% | -1.3% | 4%
Fc1ccccc1-c1cc2ncccc2cn1 | / | 3% | -1.3 | / | -4.0% | 1.6% | 1%
CCc1ccccc1NC(=O)C1c2ccccc2Oc2ccccc21 | -6% | 23% | -2.2 | 5.1 | -2.0% | 9.7% | ?
CSCCC(NS(=O)(=O)Cc1ccccc1)C(=O)NNc1ccccc1 (centres undefined) | / | / | 7.4 | / | -8.9% | 4.1% | /
O=C(COc1ccc(Cl)cc1)NNC(=O)C(=O)NC1CCCCC1 | -21% | 10% | -2.2 | / | -1.4% | 1.5% | -10%
O=C(O)CN1CCN(C(c2ccccc2)c2ccccc2)CC1 | -4% | 7% | 0.8 | -8.4 | / | -0.2% | ?
S=C(NCc1ccco1)N/N=C/c1ccc(Cl)cc1 | -7% | 10% | 1.8 | 2.0 | -0.4% | 9.5% | -45%[inhibitor]
Cc1cc(C)cc(N(C(=O)c2ccc3c(c2)OCO3)C2C=CS(=O)(=O)C2)c1 (centres undefined) | 9% | 3% | -1.3 | -0.3 | -0.3% | -1.6%[38.3 µM] | -25%
CC(=O)N1CCN(c2ccc(NC(=O)c3ccc(F)cc3)cc2)CC1 | 10% | -11% | 1.5 | -3.5 | 0.1% | -1.7% | -32%
CCc1nc(N2CCCCC2C(=O)O)c2oc3ccccc3c2n1 (centres undefined) | 6% | ? | 2.6 | -0.6 | / | 1.2% | ?
CCOc1ccc(-n2cc(-c3ccccc3)c3c(N4CCOCC4)ncnc32)cc1 | -14% | ? | ? | 3.9 | / | -1.5% | -5%[15.4 µM]
CC(C)[C@H](NC(=O)c1ccccc1Cl)C(=O)Nc1nc(-c2ccccn2)cs1 | ? | -9% | 2.7 | 0.1 | -1.4% | 4.6% | 18%[15.4 µM]
COC(=O)c1ccc(NC(=O)CO/N=C2\CCCc3nonc32)cc1 | 11% | 0% | -1.6 | 0.6 | 1.8% | 1.3% | -6%[15.4 µM]
COc1cc(/C=C/C(=O)OCC(=O)NC(=O)NC(C)C)ccc1O | 0% | 1% | 0.9 | -2.6 | -17% | 1.4% | -2%
C/C=C/Cn1c(SC)nc2c1c(=O)[nH]c(=O)n2C | ? | 10% | 0.4 | 6.4 | 2.0% | 1.4% | 0%
Cc1ccc(CNC(=O)C2CCC(=O)N(Cc3cccc(C(F)(F)F)c3)C2)o1 (centres undefined) | / | 6% | -1.8 | / | -4.5% | 2.2% | -10%[15.4 µM]
CCOC(=O)c1[nH]c2ccccc2c1NC(=O)c1ccc2c(c1)OCO2 | 7% | -9% | -2.8 | -1.8 | 47% | 10% | 22%
COc1ccc(C(=O)c2c[nH]c(C(=O)NCc3cccs3)c2)cc1 | 12% | 29% | -3.8 | -0.3 | 0.4% | -1.4% | -2%
CCN(CC)c1nc(-c2ccccc2)cc(C(F)(F)F)c1C#N | -1% | 4% | -0.6 | 2.0 | ? | 17% | 10%
Cc1ccc(S(=O)(=O)N[C@@H](Cc2ccccc2)C(=O)N2CCC(C(=O)N[C@@H](CC(C)C)C(=O)O)CC2)cc1 | 17% | -12% | -2.9 | 0.4 | -0.4% | -0.8% | 11%[15.4 µM]
Brc1ccc(Oc2nnnn2-c2ccccc2)cc1 | 7% | -7% | -30 | 2.2 | -4.1% | -0.7% | -6%
CC1(C)OC(=O)C(=CNC(CCC(N)=O)C(=O)O)C(=O)O1 (centres undefined) | 5% | 9% | -2.1 | 1.6 | 2.3% | -0.3% | -17%

Next section.
SMILES | Sfp PPTase inh | gsp antagonist | D2 agonist | Menin-MLL FL inh | ClpP mod | PINK1 modulator | gsp agonist
CCOC(=O)Cc1csc(NC(=O)CSc2nnc(-n3nc(C)cc3C)c3ccccc23)n1 | 7% | -10% | 0.4 | -2.0 | -1.0% | -0.2%[38.3 µM] | -18%
O=C1C2CCCN2C(c2ccco2)N1c1ccc(F)cc1 (centres undefined) | 16% | 13% | 0.9 | -1.1 | / | 0.8% | 6%[15.4 µM]
O=C(O)/C=C/C=C/c1ccccc1 | 15% | / | / | 1.9 | / | -1.4% | /
O=C(N/C(=C/c1cccs1)C(=O)N1CCCC1)c1ccccc1 | 5% | 19% | 0.0 | 3.8 | / | -1.0% | -3%[15.4 µM]
CN1CCN(CC2(O)CCN(S(=O)(=O)c3ccc(Cl)cc3)CC2)CC1 | 16% | 7% | 0.0 | -0.3 | / | -1.4% | 10%[15.4 µM]
CC(=O)c1cn(C)c(=O)c2ccccc12 | 16% | 1% | -0.7 | -0.2 | -2.4% | 0.5% | 6%
CCc1nnc(NC(=O)CSc2nc3c(C)cccc3[nH]2)s1 | -1% | 3% | 6.3 | 2.3 | 1.0% | 2.0% | 1%[15.4 µM]
COc1ccccc1-c1noc(-c2ccccc2C(=O)N2CCOCC2)n1 | 7% | 6% | -4.1 | -2.2 | 0.1% | 0.2% | 0%
COc1ccc(C(=O)OCCNC(=O)c2ccncc2)cc1OC | 6% | 16% | -2.6 | -2.7 | -0.1% | 3.0% | 2%
Cc1cccn2cc(CNc3ccccc3)nc12 | -4% | 5% | -2.1 | -1.4 | 0.5% | 31%[38.3 µM] | -15%
